Mtb bLac sens: beta-lactam sensitization of Mtb H37Rv | M. tuberculosis H37Rv growth with meropenem, percent inhibition; hits of this screen are not shown here | inhibition, % at 25 µM | 330,000 tested, 0.27% active | AID 434955;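 active means about 74% or more and at least 40 points above the plate without the antibiotic, then above 30% in a dose series; inconclusive means first-round hits that could not be retested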;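 further: growth measured after seven days incubation then overnight dye step; 0% = bacteria only wells and 100% = bacteria with antibiotic; twin plates without the antibiotic show which effects depend on it; some results filed as inactive read as strong as hits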
YopH PTP inh: YopH (Yersinia) phosphatase inhibition | fluorescence Ex485/Em525 | inhibition, %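 (about 10 µM by stock and volumes)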 | 140,000 tested, 0.16% active | AID 898;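 active means inhibition of 50% or more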;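 further: controls were vehicle for no effect and minimum signal wells for full effect; inactives centre near -20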
Mtb H37Rv: M. tuberculosis H37Rv growth inhibitors, H37Rv strain (AID 1626); M. tuberculosis H37Rv growth inhibition; higher % means a stronger effect; inhibition, % at 10 µM, or IC50 in µM where a hit was titrated; 220,000 tested, 0.95% active;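 active means confirmed in a dose series; inconclusive means inhibition above 80% but not taken into the dose series; inactive means below 80% or under 30% at every dose of the series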;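 further: bacteria incubated seven days before Alamar blue readout; 0% = bacteria only wells and 100% = bacteria with antibiotic wells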
Arbovirus inh: arbovirus infection inhibition. arbovirus infection cell-based antiviral screen. AID 1251. inhibition, % at 10 µM. 200,000 tested, 0.37% active;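 active means inhibition from about 30%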;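 further: bluetongue infection of BSR cells; cell survival read as ATP light after 72 h; 0% = infected wells without compound and 100% = uninfected wells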
RecA intein inh: Mtb RecA intein splicing inhibition. P9WHJ3. 290,000 tested, 0.75% active. inhibition, %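 (about 9 µM by stock and volumes)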. cell-free RecA intein splicing, fluorescence; in the data active means inhibition above about 30%; inconclusive means no clear call, values can overlap the other calls;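 further: 0% = vehicle wells and 100% = reference inhibitor control wells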
Target sequence (P9WHJ3 whole entry, looked up): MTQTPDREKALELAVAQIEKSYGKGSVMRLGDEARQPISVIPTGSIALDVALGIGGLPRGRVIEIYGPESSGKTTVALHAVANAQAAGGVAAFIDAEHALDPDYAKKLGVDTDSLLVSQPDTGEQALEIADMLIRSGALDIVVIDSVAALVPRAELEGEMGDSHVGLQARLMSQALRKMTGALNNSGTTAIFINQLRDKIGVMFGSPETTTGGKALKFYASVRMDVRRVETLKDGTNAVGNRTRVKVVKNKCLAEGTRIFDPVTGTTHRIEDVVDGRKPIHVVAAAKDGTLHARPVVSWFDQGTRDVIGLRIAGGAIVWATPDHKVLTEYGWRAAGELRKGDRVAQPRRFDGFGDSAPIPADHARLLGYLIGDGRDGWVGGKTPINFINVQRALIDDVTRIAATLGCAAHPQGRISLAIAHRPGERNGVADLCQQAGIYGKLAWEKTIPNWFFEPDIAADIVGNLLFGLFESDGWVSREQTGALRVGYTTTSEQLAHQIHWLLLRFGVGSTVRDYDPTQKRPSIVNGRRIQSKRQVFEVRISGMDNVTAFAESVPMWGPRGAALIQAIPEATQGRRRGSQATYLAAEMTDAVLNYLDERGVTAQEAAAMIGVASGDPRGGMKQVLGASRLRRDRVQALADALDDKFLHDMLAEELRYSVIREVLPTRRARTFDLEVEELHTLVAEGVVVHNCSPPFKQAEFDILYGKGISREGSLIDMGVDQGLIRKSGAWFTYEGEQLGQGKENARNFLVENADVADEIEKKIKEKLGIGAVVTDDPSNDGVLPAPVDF
Arbovirus inh repeat: second read-out of Arbovirus inh, no call of its own (marks repeat the call); inhibition, %; measured here: 10K subset replicate screen; many hits read low in the repeat;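 first of two repeat runs on a subset; 0% = infected and 100% = uninfected wells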
An asterisk follows results filed as active; ? = inconclusive; . = not tested or not shown.

SMILES	Mtb bLac sens	YopH PTP inh	Mtb H37Rv	Arbovirus inh	RecA intein inh	others
Cc1cc(C)cc(NC(=O)CSc2nc3ccccc3nc2N2CCCC2)c1	-1	.	.	.	1.9
CCN(CC)S(=O)(=O)c1ccc(NC(=S)Nc2ccc(F)cc2)cc1	6	.	.	.	0.9
Cc1cc(Cl)ccc1OC(C)C(=O)Nc1cnn(CCCC(=O)O)c1 (centres undefined)	-1	.	.	.	1.5
C=CCOC(=O)C1=C(C)NC(=S)NC1/C=C/c1ccccc1 (centres undefined)	-6	-20	9%	-7	1.4
CC(=O)Nc1nonc1C(=O)N1CCC(C)CC1	-8	-10	-10%	10	0.3
CC(NCc1ccccc1Cl)C(O)c1ccccc1 (centres undefined)	2	-21	9%	-2	1.4
COc1nc(NC2CCCCC2)nc(NC(C)(C)C)n1	44	.	.	.	6.3
COc1cc2[nH]c(=O)n(CCC(=O)N3CCN(c4cc(Cl)ccc4C)CC3)c(=O)c2cc1OC	?	16	.	-22	.
COC(=O)CCCC1=CC2=CC(=O)C(C)(OC(=O)c3cccs3)C(=O)C2=CN1C1CCCC1 (centres undefined)	1	.	-2%	.	13
CC(=O)OCC(OC(C)=O)C(OC(C)=O)C(OC(C)=O)C(=O)Nc1cccc(C)c1 (centres undefined)	-4	.	0%	.	-0.8
CN(C)c1ccc(/C=C(\C#N)C(=O)Nc2nc3c(s2)CCN(Cc2ccccc2)C3)cc1	-2	18	-12%	-19	.
Cc1ccc(S(=O)(=O)Nc2c(C(=O)O)[nH]c3ccccc23)cc1C	-3	.	.	.	2.2
CCCn1c(SCC(=O)Nc2ccccc2Oc2ccccc2)n[nH]c1=O	23	-13	3%	10	-0.3
O=C(NCCNC(=O)c1ccccc1F)c1ccccn1	5	.	.	.	-5.3
CCOC(=O)Cc1csc(NC(=O)CSc2nnc(C(C)C)n2CC)n1	0	36	-4%	4	3.2
CCN1CCN(C(=O)c2ccc3c(c2)N(Cc2ccc(C)cc2)CCS3)CC1	2	.	.	.	3.0
CC1CCCc2sc3ncn(N)c(=N)c3c21 (centres undefined)	-6	.	-5%	-1	-0.1
COc1ccc(Cn2c(-c3ccco3)nc3oc4cc(OC)ccc4c(=O)c3c2=O)cc1	2	-16	-5%	-11	-1.4
C=CCNc1oc(-c2ccc(OC)cc2)nc1C#N	7	-19	13%	-2	1.9
COc1ccc([N+](=O)[O-])cc1N(CC(O)CN(CC(C)C)CC(C)C)S(=O)(=O)c1ccccc1 (centres undefined)	-3	-10	0%	-17	0.3
Cc1cc(C)nc(NC(=O)Cc2cccs2)n1	-7	-15	-11%	3	.
COc1cc(C(=O)NNC(=O)CNC(=O)c2ccc(Br)o2)cc(OC)c1OC	-1	.	.	.	1.1
Cc1cnc(SCc2ccc(Cl)cc2Cl)[nH]c1=O	-4	.	-5%	.	2.2
Cc1ccc(NS(=O)(=O)c2ccc(OCC(=O)NCC3CCCO3)cc2)cc1 (centres undefined)	-8	.	6%	4	4.0
OC(c1ccccn1)C1CCN(Cc2nc(C(c3ccccc3)c3ccccc3)no2)CC1 (centres undefined)	-5	.	1%	7	2.8
Next compounds follow.
SMILES	Mtb bLac sens	YopH PTP inh	Mtb H37Rv	Arbovirus inh	RecA intein inh	others
COc1cccc(-c2nc(CS(=O)(=O)CC(=O)NCCc3ccc(OC)cc3OC)c(C)o2)c1	1	.	.	.	0.0
CCc1ccccc1NC(=O)Nc1ccc(F)cc1	-6	.	3%	4	0.7
CCOc1ccccc1NC(=O)CNC(=O)c1nn(-c2ccc(OC)c(OC)c2)c(=O)c2ccccc12	5	.	.	.	1.6
CNC(=O)c1c(NC(=O)c2ccco2)sc(C)c1C	-8	.	.	.	-1.9
O=C(NCc1cccc(F)c1)c1ccc(N2C(=O)Cn3c(cc4sccc43)C2=O)cc1	-6	10	-4%	-6	-4.8
Cn1ncc(SCc2ccccc2)c(Cl)c1=O	-2	.	6%	.	.
COc1cc2c(cc1OC)C(C(=O)Nc1ccc(F)c(Cl)c1)CC(=O)N2 (centres undefined)	-6	.	.	.	-0.4
O=C(NCC(=O)N1CCN(c2ccccc2)CC1)c1ccccc1	0	.	.	.	2.4
CCOC(=O)N1CCN(Cc2c(F)cccc2Cl)CC1	.	-56	4%	-7	1.7
O=C(CCc1ccccc1)N/N=C/c1cccc([N+](=O)[O-])c1	6	.	2%	-12	-1.7
O=C(NCCCn1cccn1)C1CCC(=O)N(CCc2ccccc2)C1 (centres undefined)	-1	.	.	.	-2.4
COC(=O)c1ccc(COc2ccc(C=O)cc2)o1	54	.	.	.	-0.6
O=C(O)CCCCCNc1nc(-c2ccccc2)nc2ccccc12	1	.	.	.	0.5
N#CC1(Nc2ccccc2)C(=O)Nc2ccccc21 (centres undefined)	-7	-7	-1%	10	2.2
Cc1ccc(C(C(=O)NC2CCCC2)N(C(=O)CCC(=O)Nc2cc(C)on2)c2ccccc2)cc1 (centres undefined)	-8	-2	-1%	6	3.2
Cc1ccc(C)c(NS(=O)(=O)c2ccc(OCC(=O)N3CCCC3)cc2)c1	4	-32	-3%	0	1.1
CCOc1ccc(-c2cc(CCCC(=O)NCCC(C)C)no2)cc1	98	.	-2%	-4	.
C=C(C)C1CC=C(C)/C(=N/NC(=O)COc2ccc(C)cc2)C1 (centres undefined)	6	3	-9%	-5	-8.3
CCOC(=O)Nc1ccc(C)cc1Br	-5	-47	-8%	-7	-1.1
CC1=CS/C(=C(/C#N)C(=O)N2CCOCC2)N1c1ccccc1	0	-28	0%	-3	1.3	Arbovirus inh repeat=5
CN[C@H](C)[C@H](O)c1ccccc1	-8	.	3%	5	0.3
O=C(CN(Cc1ccccc1Cl)C(=O)CN1C(=O)CSc2ccccc21)NC1CC1	-2	.	.	.	-2.2
O=C(CCc1nc(-c2cccs2)no1)NCc1ccc(F)cc1Cl	-9	-42	4%	-1	-4.9
COc1cc2c(cc1OC)C(C(=O)NC(C)c1ccccc1)CC(=O)N2 (centres undefined)	-2	.	.	.	-3.6
COc1ccccc1C(=O)C1CCCN(C(=O)c2cccnc2SC)C1 (centres undefined)	-1	.	-1%	5	-1.0
More structures
SMILES	Mtb bLac sens	YopH PTP inh	Mtb H37Rv	Arbovirus inh	RecA intein inh	others
CCN(c1ccccc1)S(=O)(=O)c1ccc(C(=O)N(CCCN(C)C)c2nc3c(C)cccc3s2)cc1	12	.	.	.	5.8
CCc1ccc(CN2CCN(c3ncccn3)CC2)cc1	-4	.	.	.	1.5
COc1ccccc1C(O)(C(=O)NN(C(=O)c1ccccc1)c1ccccc1C)c1cccs1 (centres undefined)	-1	-43	7%	-7	.
COc1ccc(C(CC(=O)c2ccccc2)CC(=O)c2ccccc2)cc1	-2	.	-6%	.	8.2
CCCC(=O)NC(Nc1ccccc1OC)C(Cl)(Cl)Cl (centres undefined)	3	-32	2%	6	1.6
Cc1ccc(NC(=O)CN2C(=O)S/C(=C/c3ccc(-c4cccc(C(=O)O)c4)o3)C2=O)cc1	.	.	1%	24	.
Cc1ccc(S(=O)(=O)Cn2nnnc2C(c2ccccc2)N2CCN(c3ncccn3)CC2)cc1 (centres undefined)	2	-27	0%	-7	0.7
CC1CN(C2=CC(=O)CCC2)CC(C)O1 (centres undefined)	2	.	-13%	4	-3.4
CC1=C(C(=O)OC(C)C)C(c2ccccn2)n2ncnc2N1 (centres undefined)	-4	-14	-3%	0	11	Arbovirus inh repeat=2
CCOC(=O)CNC(=O)CSc1ccc2nnc(-c3cccnc3)n2n1	1	.	-3%	4	-3.0
COc1ccc(CCN(C)C(=O)CCc2nnc(-c3ccccc3)o2)cc1OC	-8	.	-4%	0	-0.6
CCOC(=O)c1ccc(NC(=S)N2CCN(S(C)(=O)=O)CC2)cc1	-9	1	6%	8	3.0
CCOc1cccc(CNc2ccc(O)cc2)c1OCc1ccccc1Cl	85	-32	-3%	3	13
Cc1ccc2nc(-c3ccc4c(c3)NC(=O)CO4)cn2c1	15	.	-1%	.	0.6
CCOc1ccccc1NC(=O)c1cccc2ccccc12	96	.	.	.	3.8
CS(=O)(=O)N1CCN(C(=O)C2c3ccccc3Oc3ccccc32)CC1	-4	2	-1%	6	-1.4
COCCN1C2=C(C(=O)CC(C)(C)C2)C(c2ccc(O)c(OC)c2)C2=C1CC(C)(C)CC2=O	-4	.	.	.	-12
O=C(CCN1CCc2ccccc2C1)Nc1ccc2c(c1)OCO2	0	-12	7%	-6	-1.2
Cn1ncc(Cl)c(Oc2ccccc2)c1=O	-6	-19	4%	5	0.0
CCN(CC)S(=O)(=O)c1ccc(Cl)c(C(=O)OCC(=O)c2c(N)n(C)c(=O)n(C)c2=O)c1	2	.	-9%	.	3.0
C/C(=N\NC(=O)c1ccccc1C)c1ccc(NC(=O)c2cccs2)cc1	-18	5	.	82*	0.8
CC(C)(CO)NCC(=O)Nc1cc(C(F)(F)F)cc(NC(=O)CNC(C)(C)CO)c1Cl	-3	-2	-2%	-2	2.6
Cc1ccc(S(=O)(=O)N2CCC(C(=O)N[C@H](C(=O)NC3CCS(=O)(=O)C3)C(C)C)CC2)cc1 (some centres undefined)	0	-1	.	-4	0.1
COc1ccc(S(=O)(=O)N(C)CC(=O)N2CCC(C(N)=O)CC2)cc1Cl	-4	-18	-6%	6	2.9
Cc1sc2nc3n(c(=O)c2c1C)CCCS3	-13	-5	-3%	1	7.4
Carrying on.
SMILES	Mtb bLac sens	YopH PTP inh	Mtb H37Rv	Arbovirus inh	RecA intein inh	others
CCN1CCN(c2ccc(N=Cc3ccccc3O)cc2)CC1	-4	.	-5%	-17	-8.9
Cn1c(=O)oc2cc(S(=O)(=O)NCCC(=O)NCc3ccc(F)cc3)ccc21	-8	.	.	.	-2.0
Cc1cccc(C)c1NC1=NC(=S)N(c2ccc(N(C)C)cc2)C1(C)C	-1	-33	.	-5	1.4
CS(=O)(=O)N(CC(=O)N1CCc2ccccc2C1)c1cccc([N+](=O)[O-])c1	-2	.	.	.	2.2
O=C1c2cccnc2C(=O)N1C1CCCCC1	1	-34	-6%	10	3.5
COc1ccc(C2=NOC(Cn3nc(C(=O)O)cc3-c3ccccc3)C2)cc1 (centres undefined)	-5	.	.	.	0.9
Cc1ccc(-c2nc3ncccn3c2Nc2ccc3c(c2)OCCO3)o1	-3	-14	13%	-3	-3.9
Cc1ccc(-c2cn(-c3ccc(OC(F)F)cc3)c3[n+]2CCCCC3)cc1	-4	.	-4%	.	.
CCN(CC)S(=O)(=O)c1cnccc1N1CCN(c2cccc(Cl)c2)CC1	9	-22	2%	-1	1.5
O=C(NCCO)C(=O)c1c(-c2ccccc2)cc2ccccn12	0	.	-1%	6	4.1
S=C(NCCc1c[nH]c2ccccc12)NC1CC1	-3	.	-1%	5	-1.3
O=C(O)Cc1ccc(NC(=O)c2cccc(NC(=O)c3ccco3)c2)cc1	1	.	2%	1	-1.0
CC1(C)CCSC(/C=C/c2ccccc2)=N1	.	.	20%	.	1.2
CC1CN(Cc2nc3c(c(=O)n(C)c(=O)n3C)n2CCN2CCOCC2)CC(C)O1 (centres undefined)	.	-40	-16%	1	4.4
O=[N+]([O-])c1ccccc1/C=C/C=N/Nc1nc(N2CCCCC2)nc(N2CCCCC2)n1	-3	.	-1%	12	2.2
COC(=O)c1ccc(NC(=S)NNC(=O)c2ccccc2)cc1	6	.	-2%	11	-5.8
Cc1cc(C)cc(NC(=O)c2ccc(N3C(=O)C4CCCCC4C3=O)cc2)c1 (centres undefined)	3	.	.	.	-4.5
CCCN1CCN(C(=O)c2c(Cl)cnn2C)CC1	-3	.	.	.	2.1
O=C(CC(c1ccco1)C1CCCCC1=O)c1ccccc1 (centres undefined)	13	-14	19%	0	2.6
Cc1oc2cc(OC(=O)c3ccco3)ccc2c(=O)c1-c1nc2ccccc2n1C	-5	-27	-1%	2	6.3

High-throughput results (PubChem)

Some of the compounds tested; rates above refer to the full screens.
